# Screens from PubChem BioAssay.
# Mtb hypoxia inh – reduces hypoxia-regulated biosensor signal in M. tuberculosis | M. tuberculosis hypoxia-regulated fluorescent reporter, fluorescence | fluorescence inhibition, % (concentration not given with the values) | actives 0.1% (n = 300,000) | AID 1159583;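 active = 35 to 45% if threefold the growth effect, above 45% if 1.5-fold the growth effect; inactive = the rest, general growth blockers included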;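 note: wells of about 50 µL received 100 nL stock; 0% = vehicle wells and 100% = reference inhibitor wells; whole bacteria with a GFP reporter of the hypoxia response; strong numbers were not always called active; many hits fall short of the cut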
# PrP UTR inh – inhibition of PrP 5' UTR reporter expression; cell-based PrP 5' UTR mRNA reporter, plate reader; inhibition, % (test concentration not listed); actives 0.35% (n = 340,000); AID 488862;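 active = every replicate at 50% or more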;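 note: 0 = median of the neutral control wells; tested in H4 reporter cells; numbers are from one replicate; inactives centre near -14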
# Sa RN4220 lethal – S. aureus RN4220 growth inhibition. OD600, 16 h. inhibition, % (test concentration not listed). actives 0.33% (n = 330,000);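 active = z-score of -3 or lower and OD600 up to 0.18 on both plates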;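 note: plate controls were untreated cells for no effect and reference antibiotic for full effect; stock transfer was 100 nL into about 80 µL; one replicate is shown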
# Bead autofluor – counter-screen for toxin protease inhibitors: compound fluorescence. compound autofluorescence counterscreen, microsphere flow cytometry; hits give high values. fluorescence intensity (no concentration beside the values). AID 624483. actives 3.1% (n = 360,000);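 active = at least 3 SD above the mean of all compounds, about 16000 in these data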;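 note: 100 nL of 1 mM stock went into each well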
# ugtP null kill – growth inhibition of S. aureus ugtP deletion strain. S. aureus RN4220 ugtP deletion, OD600 growth, 16 h; some inactives read as strong as hits. growth inhibition, % (test concentration not listed). actives 0.54% (n = 330,000). AID 1259309;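 active = z-score under -3 and OD600 up to 0.15 on both plates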;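 note: plate controls were untreated wells for no effect and antibiotic for full effect; wells of about 80 µL received 100 nL stock; the first replicate is given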
# BJeLR lethal – kills HRASV12-expressing BJeLR cells; BJeLR (HRASV12) viability, CellTiter-Glo ATP luminescence, 48 h; reference of the scale not given here; inhibition, % (test concentration not listed); actives 0.17% (n = 300,000); AID 1554;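 active = replicate mean above 50%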;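 note: 50 nL library stock added to about 25 µL; numbers are from one replicate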
# Mtb hypoxia inh growth – further read-out of Mtb hypoxia inh, marked with its call; growth inhibition, %; measured here: M. tuberculosis growth (absorbance);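 0% = vehicle and 100% = reference antibiotic; read after six days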
# * = called active by the depositor; . = no result given.
SMILES,Mtb hypoxia inh,Mtb hypoxia inh growth,PrP UTR inh,Sa RN4220 lethal,Bead autofluor,ugtP null kill,BJeLR lethal
COCCCn1c(SCC(=O)N2CCOCC2)nc2cc(Cl)ccc2c1=O,-9,2,-5,0.6,3121,-1,.
CC(=O)N1c2ccc(S(=O)(=O)N3CCC(C(=O)Nc4ccc(F)cc4)CC3)cc2CC1C (stereo unspecified),3,1,-9,-6.8,4372,6,-17
Cc1nn(CC(=O)O)c(C)c1N,5,-1,-34,3.6,5538,5,-2
CC(NCc1ccc(Cl)cc1)C(O)c1ccccc1 (stereo unspecified),-2,8,-31,5.2,8498,5,-3
CSc1nsc(SCC(=O)Nc2ccccc2F)n1,14,3,-27,0.7,2976,14,7
CCOC(=O)c1c(NC(=O)C2COc3ccccc3O2)sc2c1CC(C)(C)NC2(C)C (stereo unspecified),5,14,-19,-2.3,2069,-15,27
CN(C(=O)c1cccc(Cl)c1)C1CCCN(Cc2ccccc2F)C1 (stereo unspecified),2,12,12,2.0,4390,4,8
O=C1c2ccccc2C(O)N1Cc1ccccc1Cl (stereo unspecified),5,0,-8,-15,6369,-7,-6
CC(=O)NC(CC(=O)OC(C)C(=O)Nc1ccc(Cl)cn1)c1ccccc1 (stereo unspecified),1,11,-102,1.1,5679,3,-6
CS(=O)(=O)N1CCCC(c2nc(-c3ccc(S(=O)(=O)NCc4ccccc4)cc3)no2)C1 (stereo unspecified),3,1,-11,3.9,10880,2,13
O=C(/C=C/c1ccc([N+](=O)[O-])cc1)NCc1cccs1,-2,-1,-18,1.4,2021,11,0
Cc1ccc(Cn2c(Sc3ncccn3)nc3c2c(=O)[nH]c(=O)n3C)cc1,5,6,-20,5.7,9728,-8,-1
Cc1cnc(=O)[nH]c1SCc1cccc([N+](=O)[O-])c1,4,-1,4,4.1,5654,2,-4
Cc1ccc(S(=O)(=O)Cn2nnnc2C(CC(C)C)N2CCN(C)CC2)cc1 (stereo unspecified),7,-13,-11,3.1,4026,8,4
O=C(O)c1ccc2c(c1)C(=O)N(c1ccc(Nc3ccccc3)cc1)C2=O,8,7,1,5.0,3756,0,2
CC(C)Cc1nnc(NC(=O)CC(=O)Nc2ccccc2C(=O)O)s1,-2,4,-11,2.1,3283,-2,2
CC1(c2ccccc2)NC(=O)N(CC(=O)Nc2ccccc2N2CCCCC2)C1=O (stereo unspecified),0,3,-18,4.4,4796,5,4
O=C(NC(Cc1ccccc1)C(=O)O)/C(=C\c1ccco1)NC(=O)c1ccccc1Br (stereo unspecified),6,13,-19,2.4,2082,-1,4
CCC(=O)NN1CCc2cc3ccc(C)cc3nc21,2,1,-12,4.2,4097,4,9
COc1ccc(C(=O)NCCC(=O)NCc2cc(=O)n(C)c(=O)n2C)cc1,4,4,-9,0.8,4882,4,6
Cn1c(N)c(C(=O)COC(=O)c2ccc(C(F)(F)F)cc2)c(=O)n(C)c1=O,11,14,-16,5.7,3401,-2,.
CCOC(=O)c1cc(-c2ccccc2)sc1NC(=O)CSc1nnnn1C,3,8,-14,-1.3,11114,-17,.
Cc1noc(C)c1S(=O)(=O)N(CC(=O)NC1CCC(C)CC1)c1ccc(C(C)C)cc1 (stereo unspecified),-7,0,3,-0.4,5438,-2,-1
CC(=NNc1ccccc1[N+](=O)[O-])c1ccc(N2CCOCC2)cc1,14,10,.,3.0,.,3,.

# Part of the list above, with values under each structure.
# Under each structure – Mtb hypoxia inh	Mtb hypoxia inh growth	PrP UTR inh	Sa RN4220 lethal	Bead autofluor	ugtP null kill	BJeLR lethal
O=C(NC(Cc1ccccc1)C(=O)O)/C(=C\c1ccco1)NC(=O)c1ccccc1Br (stereo unspecified)
 : 6	13	-19	2.4	2082	-1	4
O=C(O)c1ccc2c(c1)C(=O)N(c1ccc(Nc3ccccc3)cc1)C2=O
 : 8	7	1	5.0	3756	0	2
Cc1cnc(=O)[nH]c1SCc1cccc([N+](=O)[O-])c1
 : 4	-1	4	4.1	5654	2	-4
CC(=NNc1ccccc1[N+](=O)[O-])c1ccc(N2CCOCC2)cc1
 : 14	10	.	3.0	.	3	.
CCC(=O)NN1CCc2cc3ccc(C)cc3nc21
 : 2	1	-12	4.2	4097	4	9
CC(=O)N1c2ccc(S(=O)(=O)N3CCC(C(=O)Nc4ccc(F)cc4)CC3)cc2CC1C (stereo unspecified)
 : 3	1	-9	-6.8	4372	6	-17

# The list continues.
SMILES,Mtb hypoxia inh,Mtb hypoxia inh growth,PrP UTR inh,Sa RN4220 lethal,Bead autofluor,ugtP null kill,BJeLR lethal
COc1ccc(N2CCN(C(=O)[C@H](Cc3c[nH]c4ccccc34)NC(C)=O)CC2)cc1,-1,4,-27,0.5,4166,4,0
Cc1cc(-c2csc(N)n2)c(C)n1C,5,12,-1,-2.9,.,-7,-2
CC(NC(=O)c1ccc2c(c1)OCO2)c1cccc(C(F)(F)F)c1 (stereo unspecified),7,7,-14,-1.2,3633,0,.
Cc1ccc(CN2CCN(CC(=O)NC(C)CCc3ccccc3)C2=O)cc1 (stereo unspecified),2,10,0,-2.6,5272,2,3
Cc1ccc(S(=O)(=O)Nc2c(C)nc3nc[nH]n3c2=O)c(C)c1,14,1,-42,3.0,4262,3,2
Cc1nn(CC(=O)N2CCC(C(N)=O)CC2)c(=O)c2nn(-c3ccccc3)c(C)c12,-1,1,-42,1.2,5572,5,-8
O=C(CSCc1n[nH]c(=O)[nH]1)NCCOc1cccc(Oc2ccccc2)c1,4,9,-9,0.3,19843*,6,3
COC(=O)c1ccc(CSc2cc(C)c3cccc(C)c3n2)o1,11,3,-20,39,4353,5,11
O=C(COC(=O)CN1C(=O)C2CCCCC2C1=O)Nc1c(Cl)cccc1Cl (stereo unspecified),19,36,-21,3.0,7707,4,.
CC1CC(NNC(=O)c2ccccc2)=Nc2ccccc2N1C (stereo unspecified),-1,3,-13,-4.3,2210,3,5
CC(Oc1ccc(C(=O)NC2CCCCC2)cc1)C(=O)O (stereo unspecified),.,.,-4,0.6,4276,9,-2
O=C(O)c1cccc(NC(=O)c2cc(S(=O)(=O)N3CCOCC3)cs2)c1,12,4,-11,2.5,3773,4,-2
CC(C)(C)c1ccc(C(O)CCCN2CCC(C(O)(c3ccccc3)c3ccccc3)CC2)cc1 (stereo unspecified),18,24,4,-2.8,6329,-18,-7
CCCCn1c(N)c(N(CCOC)C(=O)C2CC(=O)N(Cc3ccc(C)cc3)C2)c(=O)[nH]c1=O (stereo unspecified),8,7,-14,-0.3,5982,5,0
COC(=O)c1ccc(-n2c(C)nc3ccccc3c2=O)cc1,.,.,-27,-4.1,5753,-2,1
Cc1cc(C(=O)NC(C)Cc2ccccc2)cc(C)c1[N+](=O)[O-] (stereo unspecified),3,5,-9,5.2,3993,-9,-3
C=CCN1C(=O)C(CC(=O)Nc2ccc(OC)cc2)N(Cc2ccco2)C1=S (stereo unspecified),1,1,-11,4.0,22980*,2,-1
COc1ccc(CNC(=O)CCCC(=O)n2nc(C)c3ccccc32)cc1,2,1,4,-0.7,4720,5,-5
Nc1nc(CN2CCN(c3ccccc3F)CC2)nc(N2CCCc3ccccc32)n1,9,-4,-12,6.7,2559,4,.
CC(=NNC(=O)c1cc(-c2ccc(C)s2)nc2ccccc12)c1cccnc1,12,-3,.,-0.3,.,12,.
CC(=O)Nc1ccc(S(=O)(=O)N2CCC(C(=O)NCCc3ccc(Cl)cc3)CC2)cc1,6,0,-12,0.4,4345,1,2
Cc1cccc2cc(CN(Cc3cccs3)S(=O)(=O)c3ccc4c(c3)OCCO4)c(=O)[nH]c12,-5,14,-22,3.3,2010,-13,-8
Cc1cccc(-n2c(O)c(C=NC34CN5CN(CN(C5)C3)C4)c(=O)[nH]c2=O)c1,12,3,-69,3.7,2915,8,-2
O=C(/C=C/c1ccc2c(c1)OCO2)c1ccco1,9,11,-34,13,2025,5,13
CC(=O)Nc1ccc(C(=O)N2CCCC2)cc1,.,.,-5,1.1,4661,2,4
CC(NC(c1ccccc1)c1ccccc1)C(=O)N1CCCc2ccccc21 (stereo unspecified),1,6,13,1.0,2082,3,-2
Cc1cc(C)n2nc(SC(C)C(=O)Nc3ccc(Cl)cn3)nc2n1 (stereo unspecified),11,4,-4,5.5,3913,15,-10
Cc1ccc(OCC(=O)OCC(=O)NC2CC2)cc1C,2,9,-16,3.8,3952,4,.
COc1ccccc1N1CCN(CCC(=O)Nc2ccc(F)cc2)CC1,13,1,-9,4.3,3086,-1,-18
COc1cccc(NC(=S)N2c3ccccc3CC2C)c1 (stereo unspecified),-5,-15,-4,4.7,5687,-6,2
CCN(CC)c1ccc(/C=C(/C#N)C(=O)NC(C)C)o1,10,2,82*,1.8,4335,5,6
CCc1cc2c(s1)N(CC(=O)OC)C(=O)CN=C2c1ccccc1OC,0,11,-11,0.2,4656,0,6
COc1cccc(-c2cc(C(=O)Nc3c(C)nn(Cc4ccccc4C)c3C)no2)c1,12,11,-7,5.7,19715*,-7,-2
COc1ccc(NC(=O)CSc2ccc3c(c2)OCCO3)cc1OC,.,.,-8,-0.9,2252,2,1
COc1cc(S(=O)(=O)N2CCOCC2)ccc1NC(=O)COC(=O)COc1ccccc1,6,8,-16,-2.0,4692,4,3
Cc1nc(SCC(=O)Nc2cc(C(N)=O)cc(C(N)=O)c2)c2c(C)c(C)sc2n1,3,-3,-10,7.9,4496,-10,9

# Quoted at random: 2 records from the list
SMILES,Mtb hypoxia inh,Mtb hypoxia inh growth,PrP UTR inh,Sa RN4220 lethal,Bead autofluor,ugtP null kill,BJeLR lethal
COc1ccccc1N1CCN(CCC(=O)Nc2ccc(F)cc2)CC1,13,1,-9,4.3,3086,-1,-18
Cc1ccc(OCC(=O)OCC(=O)NC2CC2)cc1C,2,9,-16,3.8,3952,4,.

# Additional records
SMILES,Mtb hypoxia inh,Mtb hypoxia inh growth,PrP UTR inh,Sa RN4220 lethal,Bead autofluor,ugtP null kill,BJeLR lethal
CS(=O)(=O)N(CC(=O)Nc1ccc(F)cc1F)C1CCCCC1,-9,8,-22,0.7,3888,2,-10
COc1cc(-c2nc(CN3CCCN(C(=O)c4ccco4)CC3)c(C)o2)ccc1F,11,3,-23,3.7,5237,6,20
COc1ccc(OC)c(C2/C(=C(\O)c3ccc4c(c3)OCCO4)C(=O)C(=O)N2CC2CCCO2)c1 (stereo unspecified),8,8,-15,-1.2,6064,2,1
C=C1CCN([C@@H](Cc2ccccc2)C(=O)Nc2ccc(OC)cc2)S(=O)(=O)c2ccccc21,.,.,-12,.,3584,.,6
COC(=O)c1c(-c2ccccc2)csc1NC(=O)CSc1ncnc2sc(C)c(C)c12,.,.,2,0.8,2194,3,-16
CC1=C(C(=O)OCC2CCCO2)C(c2ccc(Cl)cc2)NC(=O)N1 (stereo unspecified),11,6,-18,14,2971,4,0
CCC(C)OC(=O)C1=C(C)NC2=C(C(=O)C(C(=O)OC)C(C)C2)C1c1ccc(N(C)C)cc1 (stereo unspecified),7,7,-27,3.5,3353,13,-6
CN1CCN(NC(=O)c2cn(-c3ccccc3)nc2-c2ccc(OC(F)F)cc2)CC1,-7,2,-7,2.3,3317,-5,2
CC(NC(=O)C1CCC(C(=O)NC(C)c2ccccc2)CC1)c1ccccc1 (stereo unspecified),16,4,4,4.8,3123,7,0
COc1ccc(NC(=S)NC(=O)C2CCC2)cc1,10,17,-41,-1.7,5719,7,-2
CC1(C)CC=C(NNC(=O)c2cccnc2)C(=O)C1,6,7,-30,1.2,3168,6,-1
COc1ccc(-c2cc([C@H]3[C@H]4C=CC[C@@H](C)[C@@H]4C(=O)N3Cc3ccccc3)ccc2F)cc1OC,.,.,-58,.,3949,.,-2
O=C(COc1ccccc1)N(CCc1ccccc1)c1nc(-c2ccc(F)cc2)cs1,6,5,-28,-4.6,9485,8,-2
Oc1ccccc1C=NNC1=NCCCCC1,5,7,.,4.6,.,5,.
Cc1ccc(-n2c(C)cc(/C=N/NC(=O)c3ccncc3)c2C)c(C)c1,.,.,-18,.,22871*,.,0
Cn1c(=O)n(Cc2ccccc2)c(=O)c2c1nc1n2CCCN1CCc1ccccc1,4,4,-13,-1.1,23593*,1,20
COc1ccc(N2CCN(c3c(S(=O)(=O)c4ccccc4)cnc4ccc(OC)cc34)CC2)cc1,.,.,-10,.,2298,.,-9
O=C(CSc1ncnc2sccc12)Nc1ccccc1,15,16,17,0.0,4226,6,5
CCOC(=O)c1c(NC(=O)C2C3CCC(O3)C2C(=O)O)sc(C)c1-c1ccc(C)cc1 (stereo unspecified),.,.,-9,16,2506,22,-8

# Not a hit list; about 4% have a hit in one of these screens.
